GLA inh pH 4.5: blocks human alpha-galactosidase A at pH 4.5. activity change, negative = inhibition, % at 105 µM. purified enzyme, 4-MU-alpha-Gal fluorescence, pH 4.5. AID 1467. P06280. 230,000 tested, under 10 active; inconclusive = small, poorly fitted or top-dose-only inhibition, or a rising curve; inactive = flat fitted curve, though single readings scatter; no compound was filed as active;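 also: 0% = full activity with enzyme and -100% = basal without enzyme; dose as in the result columns while the protocol names 77 µM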
Target sequence (P06280 whole entry, looked up): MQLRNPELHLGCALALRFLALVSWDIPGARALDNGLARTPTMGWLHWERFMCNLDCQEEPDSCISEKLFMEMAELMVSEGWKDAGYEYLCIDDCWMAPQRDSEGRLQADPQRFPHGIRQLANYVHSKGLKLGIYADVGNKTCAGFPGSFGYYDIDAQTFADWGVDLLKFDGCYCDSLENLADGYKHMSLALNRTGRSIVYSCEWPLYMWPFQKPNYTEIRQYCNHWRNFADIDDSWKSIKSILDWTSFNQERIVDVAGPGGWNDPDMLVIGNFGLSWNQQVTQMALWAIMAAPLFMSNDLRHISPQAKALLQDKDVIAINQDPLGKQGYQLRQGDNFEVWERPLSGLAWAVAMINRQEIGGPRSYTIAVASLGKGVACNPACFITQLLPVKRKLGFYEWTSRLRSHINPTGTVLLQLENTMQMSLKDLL
Rango complex inh: Rango-importin beta binding inhibition. Q14974. Rango CFP/YFP FRET sensor + importin beta, 45 min. hit rate 0.031% among 340,000. Potency, µM (titrated, usually from 92.2 µM), for inactives: top-dose inhibition of complex formation; active = rising FRET ratio curve, often small or poorly fitted; inconclusive = mostly compound fluorescence or quenching in the first reads; inactive = flat curves in all reads;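 also: potency is read from the fitted curve at half-maximal effect; 0% = DMSO wells and 100% = buffer wells lacking importin beta; nearly all actives have a fitted effect of over 15% in size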
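FRET biosensor Rango (snurportin 1 IBB between N-terminal EYFP and C-terminal Cerulean), 50 nM in PBS/1 mM DTT/0.02% Tween-20/0.1% BSA, preincubated 5 min RT with compound; 0.125 microM importin beta added, 45 min RT, CFP/YFP FRET ratio read.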
miR-21 FLuc: raises the signal of a miR-21 reporter. HeLa miR-21 FLuc reporter, luciferase, 48 h. Potency, µM (top dose mostly 38.3 µM), for the others: at the highest dose reporter change, positive = more light. 340,000 tested, under 10 active; active = well fitted rising curve with a large enough effect; inconclusive = small, poorly fitted or top-dose-only effect; inactive = no such curve, though single readings can be large or run the other way;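 also: % of control where 0% means no effect; miR-21 action dims this reporter so a rising signal means less miR-21 action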
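HeLa cells stably expressing CMV-driven firefly luciferase with a downstream miR-21 binding sequence, endogenously expressing miR-21, were treated with titrations (up to about 40uM final) for 48 hours at 37 degree Celsius. Luciferase luminescence was read after lysis.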
Rango release inh: prevents RanGTP from dissociating the Rango-importin beta complex; O95149+P62826; Biochemical FRET Rango-importin beta, RanGTP-induced dissociation; Potency, µM (series often up to 46.1 µM), without a hit: at the top dose activity change, negative = inhibition; hit rate 0.071% among 340,000; AID 540253; active means falling FRET ratio curve, often poorly fitted, with flat reads before Ran was added; inconclusive means other falling curves, or compound fluorescence or quenching; inactive means flat or rising ratio curve;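 also: potency is read from the fitted curve at half-maximal effect; % of control where 0% means no effect; nearly all actives have a fitted effect of over 45% in size; -100% = wells without RanGTP and RCC1; the record marks most hits as doubtful in a second field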
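Compounds sat 5 min at room temperature with 0.1 uM Rango biosensor plus 0.25 uM importin beta, then FRET pre-read. RanGTP-RCC1 (0.6 uM Ran, 2mM GTP, 0.2 uM RCC1) added for 45 min, and the CFP/YFP post-read measured blocked complex dissociation.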
* marks the source's active call; other numbers are inactive results; u = inconclusive; x = no result given; & = joins results of further samples; [ ] = another dose, or the depositor's remark. A portion of the library (hit frequency here may not be typical).

The opening two records as a preview:
Values run as follows: GLA inh pH 4.5	Rango complex inh	miR-21 FLuc	Rango release inh
CCOC(=O)c1c(NC(=O)C(=O)N/N=C/c2ccccc2O)sc2c1CCCCC2
    0.2	1.6%	-0.1%	4.6%
Cc1noc(NS(=O)(=O)c2ccc(N/C=C\C(=O)c3ccc(F)cc3)cc2)c1C
    1.3	u	-59.1%	1.2%

The list itself, from the first entry:
Values run as follows: GLA inh pH 4.5	Rango complex inh	miR-21 FLuc	Rango release inh
CCOC(=O)c1c(NC(=O)C(=O)N/N=C/c2ccccc2O)sc2c1CCCCC2
    0.2	1.6%	-0.1%	4.6%
Cc1noc(NS(=O)(=O)c2ccc(N/C=C\C(=O)c3ccc(F)cc3)cc2)c1C
    1.3	u	-59.1%	1.2%
C=CCn1c(SCC)nc(O)cc1=O
    1.5	-1.8%	-4.9%	-11.7%
CCCn1c2ccccc2c2cnn(CC(=O)NCCN(C)C)c(=O)c21
    x	-1.1%	-5.1%	2.3%
Cc1cc(=O)c2c(O)c(O)ccc2o1
    x	3.7%	-6.4%	-2.1%
Cc1ccc(CNC(=O)c2ccc(N3CCC4(CC3)CC(c3ccccc3)=NO4)c(NC(=O)c3ccc(Cl)c([N+](=O)[O-])c3)c2)cc1
    x	-1.3%	x	9.6%
COc1ccc(C(CNC(=O)c2ccc3c(c2)C(=O)N(CCC(C)C)C3=O)N2CCOCC2)cc1 (stereo unspecified)
    -1.6	-1.8%	-3.2%	1.8%
C[C@@H]1CC=C[C@H]2[C@H]1C(=O)N(Cc1ccccc1)[C@H]2c1ccc(F)c(/C=C/c2ccccc2)c1
    -11.5	0.7%	-1.6%	-1.8%
O=C(Nc1nc(-c2ccccc2)nc2ccccc12)c1ccc(F)cc1
    6.0	-3.2%	4.4%	7.2%
CC1CCc2c(sc(NC(=O)CCC(=O)O)c2C(=O)NC2CC2)C1 (stereo unspecified)
    x	-1.3%	-4.9%	2.0%
COc1ccc(CCC(=O)N2CCN(S(=O)(=O)c3ccc(OC)cc3)CC2)cc1
    x	-0.3%	x	2.6%
O=C(Nc1ccccc1C(=O)O)c1ccc2c(c1)C(=O)N(c1cccc([N+](=O)[O-])c1)C2=O
    x	-5.4%	-1.0%	-9.5%
O=C(NCc1ccccn1)C1CCN(S(=O)(=O)c2ccccc2)CC1
    5.2	-0.7%	-4.0%	-6.0%
CCn1cc(C(=O)NCc2ccco2)c(=O)c2cc(S(=O)(=O)N3CCC(C)CC3)ccc21
    -10.2	-1.2%	5.5%	1.1%
O=C(CC1SC(=Nc2ccc(OC(F)F)cc2)N(CCN2CCOCC2)C1=O)Nc1ccc(F)cc1F (stereo unspecified)
    -13.6	-0.8%	9.6%	-0.8%
COc1ccc(CNC(=O)COC(=O)c2c[nH]c(=O)[nH]c2=O)cc1OC
    -4.8	-1.6%	0.7%	28.7%
Cc1cc(C)nc(N2CCC(C(=O)NCCc3ccc(F)cc3)CC2)n1
    -16.4	1.7%	-0.5%	2.4%
CCC1CCCCN1C(=O)CSc1nnc(-c2ccc(Cl)s2)o1 (stereo unspecified)
    -1.6	0.9%	-28.5%	2.0%
O=S(=O)(Nc1ccc(F)cc1)c1ccc(S(=O)(=O)N2CCOCC2)cc1
    x	3.2%	x	0.2%
CC(C)(C)OC(=O)N(Cc1ccccc1)Cc1ccccc1OCc1cccc(NC(=O)C2CCC2)c1
    x	-0.8%	x	-9.2%
COCCCNC(=O)c1cc(S(=O)(=O)NCCCN2CCCC2=O)ccc1Cl
    x	-3.6%	x	0.4%
CS(=O)(=O)N1CCC(C(=O)N2CCN(c3ccccc3)CC2)CC1
    -3.8	1.7%	4.2%	-4.6%
Cc1cc(C)nc(NS(=O)(=O)c2ccc(N3Cc4ccccc4C3=O)cc2)n1
    -0.7	2.5%	-10.2%	-16.9%
Cc1ccc2cc(CN(CC3CCCO3)S(=O)(=O)c3ccccc3)c3nnnn3c2c1 (stereo unspecified)
    -0.1	3.8%	-33.7%	2.0%
CC1CCN(CC(O)COc2ccc(F)cc2)CC1 (stereo unspecified)
    1.8	-3.1%	-1.1%	26.4%
COc1ccc(C(=O)NCC(C)(c2ccccc2)c2ccccc2)cc1S(=O)(=O)N1CCOCC1
    x	0.7%	x	-3.8%
Cc1cc(N2CCN(C(=O)c3ccco3)CC2)n2nc(-c3cccc(F)c3)cc2n1
    0.0	u	-5.5%	-21.8%
COc1ccc2oc(C(=O)OCC(=O)N(C)C3CCS(=O)(=O)C3)c(C)c2c1 (stereo unspecified)
    x	1.2%	x	-15.2%
CCCNC(=O)N1CCC(Cc2ccccc2)CC1
    x	-2.7%	-11.2%	-1.6%
Cc1nn(C)c(C)c1Nc1ccc(N2C(=O)C3CC=CCC3C2=O)cc1[N+](=O)[O-] (stereo unspecified)
    -25.3[21.1 µM]	-0.2%	6.9%	-2.5%

Next section
Values run as follows: GLA inh pH 4.5	Rango complex inh	miR-21 FLuc	Rango release inh
O=C(/C=C/c1ccccc1F)c1cccc([N+](=O)[O-])c1
    -3.7	0.5%	-4.4%	-9.3%
Cc1ccc(C(C(=O)NC2CCCC2)N(Cc2ccc3c(c2)OCO3)C(=O)Cc2cccs2)cc1 (stereo unspecified)
    2.8	-0.6%	-8.6%	33.1%
CCc1ccccc1NC(=O)c1cnc2scc(C)n2c1=O
    4.0	0.8%	-9.4%	3.8%
COc1ccc(CCC(C)N2CCC(Oc3ccc(C(=O)N4CCCC4)cc3)CC2)cc1 (stereo unspecified)
    x	u	1.3%	-6.6%
O=C(O)Cn1c(=O)c2c(c3ccccc31)CCC2
    x	0.8%	-5.7%	7.7%
O=C(CSc1ccccc1F)Nc1ccc(N2CCOCC2)cc1
    x	-6.8%	x	35.9%
CCC(C)NC(=O)c1cc(OC)c(OC)c(OC)c1 (stereo unspecified)
    8.1	1.5%	0.5%	7.1%
CC(C)CC(=O)Nc1c2c(nn1-c1ccc(F)cc1)CS(=O)C2 (stereo unspecified)
    x	1.0%	-1.7%	1.0%
Cc1ccc(-c2noc(CCC(=O)NCCN3CCN(Cc4ccccc4)CC3)n2)cc1
    -0.4	-2.2%	16.8%	10.9%
O=C(CCCN1CCC(c2ccccc2)C1)c1ccc2c(c1)OCCO2 (stereo unspecified)
    -3.0	-1.3%	-5.8%	7.4%
O=C(CSc1nc2ccccc2c(=O)n1-c1ccc(Cl)cc1)c1ccco1
    -2.4	5.2%	0.6%	-4.1%
COC(=O)[C@@H]1C[C@H]2CC[C@H](O)C[C@H]2N1Cc1ccc(-c2ccccc2)cc1
    1.3&-13.8	1.6%	-0.3%	0.0%
O=C(c1ccc(COCC(F)(F)F)o1)N1CCCCCC1
    -25.4	1.7%	-31.6%	-5.3%
COc1ccc(NC(=O)CSc2ccc3c(c2)OCCO3)cc1S(N)(=O)=O
    x	0.3%	x	-5.4%
Cc1cc(C)c2c(N)c(C(=O)c3ccccc3Cl)sc2n1
    -3.9	u	0.4%	u
CN1CCN(C(=S)C(=O)Nc2ccccc2)CC1
    6.2	3.6%	-5.9%	-6.4%
CCOC(=O)c1nnc(-c2ccc(C)cc2)nc1Oc1ccccc1Cl
    -6.2	-3.5%	-7.8%	-6.0%
CCc1cc(Cn2nc(-c3ccccc3)cc2C(=O)NCc2cccc(C(F)(F)F)c2)on1
    x	-8.4%	x	-10.6%
CCOc1ccc(NC(=O)Cn2nnc(C(=O)NCc3ccccc3OC)c2N)cc1
    -2.1	3.0%	-3.5%	3.5%
O=C(N/N=C/c1ccc([N+](=O)[O-])o1)c1cc(-c2cccc(Br)c2)nc2ccccc12
    -2.2	1.5%	-8.5%	-2.2%
O=C(CN1CCC(C(=O)c2cccc(F)c2)CC1)NCc1cccs1
    -0.7	0.3%	-8.1%	0.2%
Cn1cc(CN2CCC(Oc3ccc(C(=O)N4CCCCC4)cc3)CC2)cn1
    x	0.0%	-0.7%	-16.4%
Cc1ccc(C)c(-n2c(CNC(=O)c3ccco3)nnc2SCC(=O)N2CCc3ccccc32)c1
    -7.2	-0.7%	-3.2%	18.1%
O=C(/C=C/c1cccs1)c1ccc(N2CCOCC2)cc1
    3.3	0.3%	-16.2%	-4.5%
Cc1ccc(S(C)(=O)=O)cc1C(=O)Nc1cccc(S(=O)(=O)N2CCCCCC2)c1
    x	-0.3%	x	3.1%
CCn1c(=O)c2c(nc3n2CC(C)CN3CCc2ccccc2)n(C)c1=O (stereo unspecified)
    1.1	-5.2%	-13.1%	-14.2%
Cc1ccc(NC(=O)CN2c3cccc4cccc(c34)S2(=O)=O)cc1
    x	0.5%	x	-22.6%
CCC1=Nc2cc(C(=O)NCCN3CCCC3)ccc2Sc2ccc(C)cc21
    x	-2.1%	-6.5%	0.0%
O=C(O)c1ccc2c(c1)-c1nc3ccccc3n1C2=O
    -0.6	5.6%	0.6%	8.2%
COc1cccc(NC(=O)CSc2nncn2-c2ccccn2)c1
    -2.2	u	-4.8%	17.5%

Next part
Values run as follows: GLA inh pH 4.5	Rango complex inh	miR-21 FLuc	Rango release inh
CCOC(=O)c1c(NC(=O)CCC(=O)O)sc2c1CC(C)(C)OC2
    -7.7	-3.6%	-4.9%	-12.5%
CCOC(=O)c1cc2c(=O)[nH]ccc2nc1C(F)(F)F
    -3.2	-1.2%	-23.5%	-3.1%
CCC(C)NC(=S)Nc1ccc2nc(N3CCN(CC)CC3)cc(C)c2c1 (stereo unspecified)
    8.8	0.6%	19.3%	3.2%
COc1ccc(C(CNC(=O)C(=O)Nc2ccc3c(c2)OCO3)N2CCN(C)CC2)cc1 (stereo unspecified)
    x	-0.3%	x	17.5%
O=C1CCNc2c(Cl)cccc21
    2.1	u	-6.8%	u
COc1cccc(NC(=O)CN(C)C(=O)c2cc(-c3ccccc3)nn2-c2ccccc2)c1
    x	-4.6%	x	-11.3%
O=C(Nc1ccccn1)C12CC3CC(C1)CC(C(=O)Nc1ccccn1)(C3)C2
    3.5	1.8%	4.0%	-11.7%
O=C1NC[C@@H](Cc2ccc(O)cc2)N(CCc2cccc3ccccc23)C1=O
    16.5	0.1%	2.1%	15.1%
COc1ccc(/C=C/C(=O)OCC(=O)NCCC2=CCCCC2)cc1
    0.4	0.0%	-4.4%	-0.8%
O=C(O)CCCn1cc(NC(=O)COc2ccc([N+](=O)[O-])cc2)cn1
    -3.3	-0.8%	-0.7%	3.2%
O=c1[nH]c(/C=C/c2ccc(Cl)cc2Cl)c([N+](=O)[O-])c(=O)[nH]1
    x	-3.9%	-0.7%	-0.6%
CCn1ccnc1CN(C)C(=O)c1cc(COc2ccccc2SC)on1
    x	3.5%	-52.0%	0.2%
CC(=O)Nc1ccc(S(=O)(=O)Oc2ccc3c(c2)C(C)=CC(C)(C)N3)cc1
    -0.9	x	10.9%	x
COc1ccc(C2/C=C\CN(C(=O)C3CC3)CC(=O)N2Cc2ccc(F)cc2)cc1 (stereo unspecified)
    3.2	-0.1%	5.3%	-19.2%
N/C(=N\O)c1ccc(NC(=O)c2ccc(Br)o2)cc1
    -7.0	2.6%	-48.1%	2.9%
CC(=O)Nc1ccc(NC(=O)C2CCCN2S(=O)(=O)c2cccc3nsnc23)cc1 (stereo unspecified)
    6.4	-4.1%	-10.8%	-8.0%
Cc1cccnc1NC(=O)CCCN1C(=O)c2ccccc2C1=O
    0.1	0.6%	-1.6%	8.4%
CN1CCN(C(=O)c2ccccc2NC(=O)c2ccccc2)CC1
    x	u	-4.2%	u
COc1cc2c(cc1NC(=O)/C=C/c1cc(OC)c(OC)c(OC)c1)oc1ccccc12
    -3.3	u	29.7%	-0.7%

Compound activity: PubChem, National Center for Advancing Translational Sciences (NCATS)
